Assay outcomes (PubChem)
AF4-AF9 inh = MLL-AF4/AF9 protein interaction inhibition; P42568; AlphaScreen, biotin-AF4 peptide binding to FLAG-AF9; inhibition, % at 10 µM; 350,000 tested, 0.47% active;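 active = every replicate reaching a set inhibition limit, whatever the replicate mean, cut at about 25% in these data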;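 note: 0% = plate neutral control median and 100% = total signal loss; the record names both 10 and 1 µM as test concentration; the first replicate is given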
Target sequence (P42568 whole entry, looked up): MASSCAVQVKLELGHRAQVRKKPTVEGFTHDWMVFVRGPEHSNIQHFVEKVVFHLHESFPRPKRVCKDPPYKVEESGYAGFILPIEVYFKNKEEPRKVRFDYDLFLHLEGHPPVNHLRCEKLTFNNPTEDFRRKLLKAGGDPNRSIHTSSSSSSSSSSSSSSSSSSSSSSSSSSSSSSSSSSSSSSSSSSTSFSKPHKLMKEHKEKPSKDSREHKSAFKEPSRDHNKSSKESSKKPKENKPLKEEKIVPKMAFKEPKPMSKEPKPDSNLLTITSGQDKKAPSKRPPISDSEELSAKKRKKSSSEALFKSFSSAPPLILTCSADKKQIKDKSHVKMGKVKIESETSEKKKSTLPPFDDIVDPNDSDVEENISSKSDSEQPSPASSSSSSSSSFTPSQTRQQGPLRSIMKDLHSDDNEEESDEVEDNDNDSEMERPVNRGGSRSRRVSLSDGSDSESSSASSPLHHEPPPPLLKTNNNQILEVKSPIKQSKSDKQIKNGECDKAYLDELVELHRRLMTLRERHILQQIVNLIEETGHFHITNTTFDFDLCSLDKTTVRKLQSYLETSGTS
FGF22 binding = shifts melting point of recombinant human FGF22 | 340,000 tested, 1.5% active | calls only at 9.99 µM | recombinant FGF22 thermal shift, SYPRO orange fluorescence; percent of sucrose octasulfate shift, DMSO zero | Q9HCT0;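 active = melting point raised past a set limit in the mean and every replicate; three in four hits are not shown here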
Target sequence (Q9HCT0 whole entry, looked up): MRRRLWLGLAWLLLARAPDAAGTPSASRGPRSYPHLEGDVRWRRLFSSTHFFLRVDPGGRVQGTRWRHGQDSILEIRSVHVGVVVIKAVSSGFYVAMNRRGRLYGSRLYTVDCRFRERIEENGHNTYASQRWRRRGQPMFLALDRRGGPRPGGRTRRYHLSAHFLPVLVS
rRNA inh HTS = inhibitors of bacterial rRNA selective over humanized ribosomes. E. coli WT GFP vs humanized-ribosome RFP mutants, fluorescence, 24 h; stronger effect = lower value; DMSO median 0, no signal -100. GFP signal change (wild-type ribosome), % (concentration not given with the values). 350,000 tested, 1.6% active. AID 720706;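 active = significant combined selectivity score with lowered wild-type GFP, culture density cut under 30%, mutant RFP and density less affected; inactive = any of these conditions unmet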; note: one replicate is shown; some compounds called inactive have numbers as strong as hits
rRNA inh HTS OD600 = further read-out of rRNA inh HTS, marked with its call; OD600 change, %; measured here: OD600 growth;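 optical density of the mix in the first replicate; 0 = DMSO median and -100 = no signal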
rRNA inh HTS RFP = recorded beside rRNA inh HTS, whose call it bears; RFP signal change, %; measured here: RFP humanized mutant strains;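 first replicate; 0 = DMSO median and -100 = no signal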
Starred values were filed as active, the others as inactive; i = inactive; & = joins results of further samples; ! = a repeat was not active. An excerpt. The share of hits here may be higher or lower than overall.

Key to letters: A = AF4-AF9 inh; B = FGF22 binding; C = rRNA inh HTS; D = rRNA inh HTS OD600; E = rRNA inh HTS RFP
canonical_smiles: NC(CO)c1csc(Nc2ccc(C(=O)c3ccccc3)cc2)n1 (centres undefined)
  A: 9.7	B: i	C: 5	D: 3	E: 4.0
canonical_smiles: O=C(Nc1cccc(Cl)c1)N1C[C@@H]2[C@H](c3ccccc31)[C@@H](CO)N2C(=O)C1CCCC1
  A: 1.6	B: i	C: -18	D: -5	E: -1.0
canonical_smiles: C[C@H](NC(=O)C[C@H]1C=C[C@@H](NC(=O)CN2CCOCC2)[C@@H](CO)O1)c1ccccc1
  A: 0.2	B: i	C: 3	D: 1	E: -0.9
canonical_smiles: C[C@@H]1CCCCO[C@H](CN(C)C(=O)CCCN(C)C)[C@H](C)CN([C@@H](C)CO)C(=O)c2cc(N(C)C)ccc2O1
  A: -5.9	B: i	C: -2	D: -1	E: -1.4
canonical_smiles: Cc1ccccc1S(=O)(=O)NCC[C@H]1CC[C@H](NC(=O)Nc2cccc(F)c2)[C@@H](CO)O1
  A: 0.7	B: i	C: -7	D: -15	E: 2.0
canonical_smiles: COc1ccc2c3c([nH]c2c1)[C@H](CO)N(C(=O)CC1CC1)CC31CCN(Cc2cncnc2)CC1
  A: 0.4	B: i	C: -3	D: -2	E: 3.6
canonical_smiles: C[C@@H]1CN([C@@H](C)CO)C(=O)CCCn2cc(nn2)CO[C@@H]1CN(C)C(=O)Nc1ccc(F)cc1
  A: -2.0	B: i	C: 0	D: 3	E: -1.9
canonical_smiles: CC(=O)N1CC2(C1)[C@H](c1ccccc1)[C@H](CO)N2Cc1ccccc1
  A: -2.1	B: i	C: 3	D: 8	E: 0.8
canonical_smiles: C[C@H](CO)N1C[C@H](C)[C@H](CN(C)S(=O)(=O)c2ccsc2)OCc2ccccc2-c2c(n(C)c3ccccc23)C1=O
  A: -19	B: i	C: 5	D: 12	E: -0.8
canonical_smiles: C[C@H](CO)N1C[C@H](C)[C@@H](CN(C)Cc2ccc(Oc3ccccc3)cc2)Oc2c(NC(=O)Nc3ccccc3)cccc2C1=O
  A: -0.8	B: i	C: -2	D: 2	E: -4.0

Part of the list above, with values under each structure:
Values in the order: AF4-AF9 inh	FGF22 binding	rRNA inh HTS	rRNA inh HTS OD600	rRNA inh HTS RFP
> O=C(Nc1cccc(Cl)c1)N1C[C@@H]2[C@H](c3ccccc31)[C@@H](CO)N2C(=O)C1CCCC1
  1.6	i	-18	-5	-1.0
> C[C@H](NC(=O)C[C@H]1C=C[C@@H](NC(=O)CN2CCOCC2)[C@@H](CO)O1)c1ccccc1
  0.2	i	3	1	-0.9
> C[C@@H]1CCCCO[C@H](CN(C)C(=O)CCCN(C)C)[C@H](C)CN([C@@H](C)CO)C(=O)c2cc(N(C)C)ccc2O1
  -5.9	i	-2	-1	-1.4
> Cc1ccccc1S(=O)(=O)NCC[C@H]1CC[C@H](NC(=O)Nc2cccc(F)c2)[C@@H](CO)O1
  0.7	i	-7	-15	2.0
> COc1ccc2c3c([nH]c2c1)[C@H](CO)N(C(=O)CC1CC1)CC31CCN(Cc2cncnc2)CC1
  0.4	i	-3	-2	3.6
> C[C@@H]1CN([C@@H](C)CO)C(=O)CCCn2cc(nn2)CO[C@@H]1CN(C)C(=O)Nc1ccc(F)cc1
  -2.0	i	0	3	-1.9
> CC(=O)N1CC2(C1)[C@H](c1ccccc1)[C@H](CO)N2Cc1ccccc1
  -2.1	i	3	8	0.8
> C[C@H](CO)N1C[C@H](C)[C@H](CN(C)S(=O)(=O)c2ccsc2)OCc2ccccc2-c2c(n(C)c3ccccc23)C1=O
  -19	i	5	12	-0.8
> C[C@H](CO)N1C[C@H](C)[C@@H](CN(C)Cc2ccc(Oc3ccccc3)cc2)Oc2c(NC(=O)Nc3ccccc3)cccc2C1=O
  -0.8	i	-2	2	-4.0

Other results follow:
Key to letters: A = AF4-AF9 inh; B = FGF22 binding; C = rRNA inh HTS; D = rRNA inh HTS OD600; E = rRNA inh HTS RFP
canonical_smiles: CNc1cncc(-c2cccc(C(C)=O)c2)n1
  A: -0.2	B: i	C: -2	D: 3	E: -4.7
canonical_smiles: C[C@H]1CN([C@@H](C)CO)C(=O)c2cccc(NS(=O)(=O)c3ccc(Cl)cc3)c2O[C@H]1CN(C)C(=O)Nc1ccc2c(c1)OCO2
  A: -0.6	B: i	C: -5	D: 2	E: 1.3
canonical_smiles: COC(=O)[C@]12C[C@H](CC(=O)NCCC(C)C)C(=O)N(CCC3=CCCCC3)C1=C[C@H](C(C)(C)C)O[C@@H]2C
  A: -1.1	B: i	C: 2	D: 11	E: 4.7
canonical_smiles: O=C(c1ccc2c(c1)OCO2)N1C[C@H]2[C@@H](c3ccccc31)[C@H](CO)N2Cc1cccnc1
  A: 0.8	B: i	C: 1	D: 5	E: 1.5
canonical_smiles: COc1cccc(C(=O)Nc2ccc3c(c2)C(=O)N(C)C[C@@H](OC)[C@H](C)CN(C)[C@@H](C)CO3)c1
  A: -2.9	B: i	C: 1	D: 3	E: -1.3
canonical_smiles: N#CN=CN1CC=C(c2ccc(Cl)cc2)CC1
  A: 0.0	B: i	C: 8	D: 6	E: 0.3
canonical_smiles: C[C@@H]1CN([C@@H](C)CO)C(=O)c2cc(NC(=O)Nc3ccc(F)cc3)ccc2O[C@@H](C)CCCCO[C@H]1CN(C)Cc1ccc2c(c1)OCO2
  A: 11	B: i	C: -4	D: -30	E: 36
canonical_smiles: CN1CCN(C(=O)C[C@@H]2CC[C@H](NC(=O)Cc3ccccn3)[C@@H](CO)O2)CC1
  A: -4.3	B: i	C: 4	D: 2	E: -0.7
canonical_smiles: O=C(C[C@@H]1CC[C@H]2[C@@H](COC[C@@H](O)CN2CCC(F)(F)F)O1)NCC1CC1
  A: -0.8	B: i	C: 2	D: -9	E: -3.5
canonical_smiles: O=C(C[C@H]1CC[C@@H]2[C@H](COC[C@@H](O)CN2Cc2cc(F)cc(F)c2)O1)NCc1cccc(F)c1
  A: -2.0	B: i	C: -3	D: -9	E: -4.4

Going on with the list.
Key to letters: A = AF4-AF9 inh; B = FGF22 binding; C = rRNA inh HTS; D = rRNA inh HTS OD600; E = rRNA inh HTS RFP
canonical_smiles: Cc1noc(C)c1S(=O)(=O)Nc1ccc2c(c1)CC(=O)N([C@@H](C)CO)C[C@H](C)[C@H](CN(C)Cc1ccc(Cl)c(Cl)c1)O2
  A: 5.6	B: i	C: -4	D: -5	E: 2.1
canonical_smiles: C[C@@H]1CCCCO[C@H](CN(C)Cc2ccccc2)[C@@H](C)CN([C@@H](C)CO)C(=O)c2cc(NS(C)(=O)=O)ccc2O1
  A: 1.3	B: i	C: 5	D: -3	E: -2.6
canonical_smiles: Cn1nc(C(C)(C)C)cc1N1C(=O)CCC1(C)C(=O)NCc1ccccc1 (centres undefined)
  A: -1.8	B: i	C: 2	D: 14	E: 13
canonical_smiles: O=C(C[C@@H]1C[C@@H]2c3cc(NC(=O)c4cccnc4)ccc3O[C@@H]2[C@H](CO)O1)NCc1cccnc1
  A: -1.0	B: i	C: 1	D: 3	E: 1.3
canonical_smiles: COc1cccc(S(=O)(=O)Nc2ccc3c(c2)C(=O)N(C)C[C@H](OC)[C@H](C)CN(Cc2ccccc2F)[C@@H](C)CO3)c1
  A: 5.4&4.8	B: i	C: -18*!	D: -14*!	E: 4.5*!
canonical_smiles: C[C@@H]1CN([C@@H](C)CO)C(=O)c2cc(C#CC3CCCC3)cnc2O[C@@H]1CN(C)S(C)(=O)=O
  A: -7.1	B: i	C: 12	D: 11	E: -0.8
canonical_smiles: COc1ccccc1S(=O)(=O)N[C@@H]1CC[C@H](CCn2cc(C3CC3)nn2)O[C@@H]1CO
  A: 0.9	B: i	C: -2	D: -1	E: -1.5
canonical_smiles: Cc1c(C(=O)NCc2ccccc2C(F)(F)F)sc(=O)n1Cc1ccccc1C#N
  A: -3.8	B: i	C: 10	D: 9	E: -0.8
canonical_smiles: O=S(=O)(N[C@H]1CC[C@@H](CCn2cc(Cc3ccccc3)nn2)O[C@H]1CO)c1ccccc1F
  A: 1.5	B: i	C: -4	D: 0	E: 1.6
canonical_smiles: O=C(C(=O)N1CCN(S(=O)(=O)c2ccc(F)cc2)CC1)c1cccc(C(F)(F)F)c1
  A: 5.2	B: i	C: 8	D: 5	E: 4.1

Carrying on.
Key to letters: A = AF4-AF9 inh; B = FGF22 binding; C = rRNA inh HTS; D = rRNA inh HTS OD600; E = rRNA inh HTS RFP
canonical_smiles: COCCNC(=O)[C@H]1[C@H](CO)[C@H]2Cn3c(ccc(-c4cccc(F)c4)c3=O)[C@@H]1N2C(=O)NC(C)C
  A: -1.6	B: i	C: 2	D: 10	E: -1.9
canonical_smiles: Cc1noc(C)c1NC(=O)N(C)C[C@@H]1Oc2ncc(C#Cc3ccc(F)cc3)cc2C(=O)N([C@H](C)CO)C[C@@H]1C
  A: -5.3	B: i	C: 3	D: 5	E: -2.9
canonical_smiles: C[C@H]1CN([C@@H](C)CO)S(=O)(=O)c2ccc(-c3cccc(C#N)c3)cc2O[C@@H]1CN(C)C(=O)Nc1ccccc1F
  A: 0.2	B: i	C: -7	D: -17	E: -2.0
canonical_smiles: O=S(=O)(c1ccccc1)N1CC2(C1)[C@H](c1ccccc1)[C@@H](CO)N2CC1CCOCC1
  A: 0.7	B: i	C: -2	D: 4	E: -0.2
canonical_smiles: C/C=C/c1cnc2c(c1)C(=O)N([C@@H](C)CO)C[C@@H](C)[C@@H](CN(C)C(=O)c1cccnc1)O2
  A: -4.6	B: i	C: 1	D: 8	E: -4.1
